Compound activity deposited in PubChem BioAssay by National Center for Advancing Translational Sciences (NCATS).
HSD17B inh – inhibitors of human HSD17B10 dehydrogenase; Q99714; AID 893; recombinant HSD17B10, NADH fluorescence kinetic; many of its hits are not listed in these tables; Potency, µM (series often up to 57.1 µM), for inactives: at the highest dose activity change, negative = inhibition, usual class: inhibitors; 7.6% of 75,000 active; active = well fitted inhibition curve with a large enough effect; inconclusive = small, poorly fitted or top-dose-only effect; inactive = no such curve, though single readings can be large or run the other way;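 also: the protocol describes HADH2 (HSD17B10) and not the HSD17B4 of the title; nearly all actives have a fitted effect of over 70% in size; most hits overshoot -100% by far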
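Activity followed as NADH fluorescence increase (ex 360, em 450 nm) every 30 seconds for 4 min, using final 90 uM beta-hydroxybutyryl CoA and 1 mM NAD+. Recombinant His-tagged enzyme, 20 nM, pH 9.0 Tris buffer, 15 min compound preincubation.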
Active calls of the source: *; ? = inconclusive; & = joins results of further samples; ! = a repeat was not active; [ ] = dose if it differs, or a comment. % is scaled to controls: 0 for no effect and ±100 for the full control effect; potency is read from the fitted curve at half-maximal effect. An excerpt. The share of hits here may be higher or lower than overall.

Start of the listing, in advance:
SMILES	HSD17B inh
O=C=NC1CCCCC1	3.8%&0.4%
CC1OC(O[C@@H]2C(O)CC(O[C@@H]3C(O)C[C@@H](OC4CC[C@]5(C)[C@H](CC[C@H]6[C@@H]5CC[C@]5(C)C(C7=CC(=O)OC7)C(O)C[C@@]65O)C4)OC3C)OC2C)CC(O)C1O (some centres undefined)	-2.4%

All compounds of this part, repeating the preview:
SMILES	HSD17B inh
O=C=NC1CCCCC1	3.8%&0.4%
CC1OC(O[C@@H]2C(O)CC(O[C@@H]3C(O)C[C@@H](OC4CC[C@]5(C)[C@H](CC[C@H]6[C@@H]5CC[C@]5(C)C(C7=CC(=O)OC7)C(O)C[C@@]65O)C4)OC3C)OC2C)CC(O)C1O (some centres undefined)	-2.4%
O=C(Cn1cc(C(=O)c2ccccc2)c2ccccc21)NCc1ccco1	-21.9%
COC(=O)c1ccc2ccn(CC(=O)NC(C)C)c2c1	25.1µM*
COc1ccc2c(c1OC)CN1CCc3cc4c(cc3[C@H]1C2)OCO4	1.5%[25.6 µM]
BrCCc1ccccc1	9.6%
C=CC1CN2CCC1CC2C(OC(=O)OCC)c1ccnc2ccc(OC)cc12 (centres undefined)	2.9%
O=c1ccc2[nH]cc(C3=CCNCC3)c2[nH]1	31.6µM*
O=CN1CCCCC1C1CC[C@H]2CCCCN2C1 (some centres undefined)	1.9%
Cc1nc2cc(-c3cccc(F)c3)nn2c(C)c1CCC(=O)N1CCC2(CC1)OCCO2	31.6µM*
CCN(CC)c1ncnc2c1ncn2[C@@H]1O[C@@H](COP(=O)(O)OP(=O)(O)C(Br)(Br)P(=O)(O)O)[C@H](O)[C@H]1O	-25.1%
c1ccc(N2CCC3(CCNCC3)CC2)nc1	20µM*
Cn1c(=O)cc(SCC(=O)N2CCC3(CC2)OCCO3)c2ccccc21	?
O=C1CCCC2[C@@H]3CCCN4CCC[C@@H](CN12)C34 (some centres undefined)	16.7%
Cc1ccc(-n2c(O)c(C=NCc3cccnc3)c(=O)[nH]c2=O)cc1C	8.8%
N#Cc1ccc(CN2CC3(CCNCC3)C2)cc1	7.1%
S=C(NC1CCCCC1)N1CCC(c2cnc[nH]2)CC1	10.7%&4.9%
CCN1CCN(C(=O)Cc2coc3cc(C)cc(C)c23)CC1	?
Cn1c(=O)c2[nH]cnc2n(C)c1=O.[CH2-][C@H](Cc1cccc2cc(C(=O)O)c(=O)oc12)OC.[Hg].[OH-]	?
CCOC(=O)c1c(C)c(P(=S)(N2CCOCC2)N2CCOCC2)n(C)c1C	-15.2%
C[N+]1(C)CCO[C@@](O)(c2ccc(-c3ccc([C@]4(O)C[N+](C)(C)CCO4)cc3)cc2)C1	-4.1%
CC(=O)OC1CCC23C(=O)OC45CCC(C6=CC(=O)OC6)C4(C)CCC2C5CCC3(O)C1 (centres undefined)	5.3%
O=C(O)C(Cl)Br (centres undefined)	-1.1%
COC(=O)C1=C(N)OC(C)=C(C(C)=O)C12C(=O)N(C)c1ccccc12 (centres undefined)	4.0%
CC1(C)C(C(Cl)Cl)C2(Cl)C(Cl)C(Cl)C1(Cl)C2(Cl)Cl (centres undefined)	-2.1%
Cc1cc(Cl)ccc1OCC(=O)O	-4.1%
COc1ccc(C(=O)O)cc1OC	0.6%
CCn1cc(C(=O)O)c(=O)c2ccc(C)nc21	-0.3%
COC(=O)c1cc2c(cn1)[nH]c1ccccc12	25.1µM*
C[C@H](N)[C@H](O)c1ccc(O)c(O)c1	?

Among those listed so far, these have a furan ring, fused or not:
SMILES	HSD17B inh
O=C(Cn1cc(C(=O)c2ccccc2)c2ccccc21)NCc1ccco1	-21.9%
CCN1CCN(C(=O)Cc2coc3cc(C)cc(C)c23)CC1	?

Continuation:
SMILES	HSD17B inh
O=C1NCN(c2ccccc2)C12CCN(C[C@H]1COc3ccccc3O1)CC2	-12.1%
O=c1[nH]oc2c1CCNC2	-0.5%
Cn1cc(CCC(=O)N2CCC3(CC2)OCCO3)c2ccccc21	?
c1ccc2c(c1)ccc1cc3c(ccc4ccccc43)cc12	?
C=CCN1CCc2cccc3c2[C@@H]1Cc1ccc(O)c(O)c1-3	25.1µM*
CCCc1c(C)c2cc(C)ccc2[nH]c1=O	?
CCC(=O)Nc1cc(C(=O)N2CCC3(CC2)OCCO3)ccc1S(=O)(=O)c1ccc(C)cc1	3.9%
Fc1ccccc1N1CCN(Cc2c(F)cccc2F)CC1	-9.5%
COc1ccc(OC)c(-n2c(O)c(C=NCc3ccc4c(c3)OCO4)c(=O)[nH]c2=O)c1	-1.1%
C=CCn1c(O)c(C(CC)=NCc2cc(OC)cc(OC)c2)c(=O)[nH]c1=O	-1.4%
COc1ccc(-n2c(C)nc3cc(C(=O)N4CCC5(CC4)OCCO5)ccc32)cc1	17.1%
O=C(Oc1ccccc1)N1CCC2(CC1)CN(C(c1ccccc1)c1ccccc1)C2	-2.9%
CN1[C@@H]2CC[C@H]1CC(O[C@@H](c1ccccc1)c1ccc(Cl)cc1)C2 (some centres undefined)	7.6%&-3.5%
NCCCP(=O)(O)CCc1ccccc1	9.6%
CCCCCC1C(=O)O[C@H](C)[C@@H](NC(=O)c2cccc(NC=O)c2O)C(=O)OC(C)C1OC(=O)CC(C)C (some centres undefined)	?
O=C1NC(=O)C2(Cc3ccccc3N3CCCC32)C(=O)N1Cc1ccccc1 (centres undefined)	?
N#C/C=C/C#N	-2.7%
CC(C)(C)OOC(=O)c1ccccc1	?
Cc1ccc(CN2CCN(C)CC2)c(C)c1	1.0%
CCNC[C@H](O)c1cccc(O)c1	2.6%[25.6 µM]
CC(=O)OC1CC[C@@]2(C)C3CC[C@]4(C)C(=O)CCC4C3CC[C@H]2C1 (some centres undefined)	1.8%
NC(=NCCC[C@H](N)C(=O)O)N[N+](=O)[O-]	6.5%
O=[N+]([O-])c1cc(C(F)(F)F)cc([N+](=O)[O-])c1Cl	-10.7%
CN1CCN(c2c[nH]c(=O)[nH]c2=O)CC1	5.8%
COC1=C(C)C(=O)c2c(c(COC(N)=O)c3n2C[C@@H]2[C@@H]3N2C)C1=O (some centres undefined)	-5.1%[11.4 µM]
Cc1cccc(-c2nc3ccccc3c(=O)n2-n2cccc2)c1	-11.6%
COc1cc(C2c3cc4c(cc3C(OC(C)=O)[C@H]3COC(=O)C23)OCO4)cc(OC)c1OC (some centres undefined)	-5.0%&3.0%
N#Cc1ccc(CN2CCC3(CC2)CCN(C(=O)Oc2ccccc2)CC3)cc1	1.5%
CC(C)(O)[C@H]1O[C@@H]2CC[C@]3(C)[C@@]4(C)c5[nH]c6ccccc6c5C[C@@H]4CC[C@]3(O)C2=CC1=O	7.7%
CC(=O)c1c(C)[nH]c(C(=O)N2CCC3(CC2)OCCO3)c1C	-5.1%
Clc1ccc(Sc2oc(/C=N/n3cnnc3)cc2Br)cc1	?
c1cc(N2CCCC3(CCNCC3)C2)ccn1	8.9%
N#C/C(=C\c1cccc(O)c1)C(=O)O	-13.1%
CCCn1c(C)c(C(=O)c2ccc3ccccc3c2)c2ccccc21	-5.5%
CCOC(=O)CCN=Cc1c(O)n(-c2ccc(Br)cc2)c(=O)[nH]c1=O	-3.0%
Cc1nc2cc(F)ccc2n1C1CCN(Cc2nnnn2CCc2ccccc2)CC1	-9.9%
O=[N+]([O-])c1cc([N+](=O)[O-])c2ccccc2c1	0.2%
CN(C)CCCc1cccnc1	4.4%[11.4 µM]
CCC(=NCC1CCCO1)c1c(O)n(Cc2ccccc2)c(=O)[nH]c1=O (centres undefined)	5.1%
Cc1nc(-c2ccc(-c3ccc(C(=O)N4CCc5cc6c(cc54)C4(CCN(C)CC4)CO6)cc3)c(C)c2)no1	6.5%&-13.8%
CCCCn1c(=O)c(C(=O)Nc2nc3ccccc3[nH]2)c(O)c2ccccc21	3.4%
O=C(C1CC(=O)N(c2ccc(F)c(Cl)c2)C1)N1CCC2(CC1)OCCO2 (centres undefined)	9.2%
CCn1c(N)c(C(=O)NC)sc1=S	12.6µM*
COC(=O)N(c1ccccc1)P1(=S)OCCO1	-29.9%
C[C@@H]1O[C@@H](O[C@H]2C[C@@H](O)[C@]3(CO)[C@@H]4[C@@H](O)C[C@]5(C)[C@H]([C@@H]6COC(=O)C6)CC[C@@]5(O)[C@H]4CC[C@@]3(O)C2)[C@H](O)[C@H](O)[C@@H]1O	-2.7%
CC1=CC(=C2C(=O)NC(=O)NC2=O)C=C(C(F)(F)F)N1C(C)C	-0.1%
C=C(CC1(CNP(=O)(c2ccccc2)c2ccccc2)CC1)c1ccccc1	10.6%
O=C(Cc1ccccc1)N1CCN(Cc2ccccn2)CC1	-3.4%
CCN1CCN(C(=O)COc2cc(=O)n(CC)c3ccccc23)CC1	-1.3%
O=P(c1ccccc1)(c1ccccc1)N1CC2(CC2)CC(O)(c2ccccc2)C1 (centres undefined)	-5.6%
CC(c1ccccc1F)n1cc(C(=O)Nc2ccc3nc[nH]c3c2)nn1 (centres undefined)	4.3%
c1ccc2sc(C3(N4CCCCC4)CCCCC3)cc2c1	5.0%&3.0%
C=CCn1c(O)c(C(CC)=Nc2cc(OC)ccc2OC)c(=O)[nH]c1=O	-9.8%
CCCCCC[C@H]1C(=O)O[C@H](C)[C@H](NC(=O)c2cccc(NC=O)c2O)C(=O)O[C@@H](C)[C@@H]1OC(=O)CC(C)C	31.6µM*
CCC(=O)Nc1ccc(Cl)c(Cl)c1	0.3%
CC(C)CC12CN3CCN(CC(C3)/C1=N/O)C2	11.5%
c1ccc(NNc2ccccc2)cc1	-1.2%
O=C1CN(C(=O)CN2CCCCC2)C(c2ccccc2)c2cc(Br)ccc2N1 (centres undefined)	?
Cc1noc(C(=O)Nc2sc3c(c2C#N)CCC3)c1Cl	?
COc1ccc(C(CC(=O)N2CCC3(CC2)OCCO3)NS(=O)(=O)c2ccc(F)cc2)cc1 (centres undefined)	4.9%

More compounds
mol | HSD17B inh
O=C(c1cccs1)N1C2CCC1CC(O)(c1cccnc1)C2 (centres undefined) | -3.3%
CN(C)Cc1c[nH]c2ccccc12 | 31.6µM*!
Oc1ccccc1-c1ccccc1 | 31.6µM*
O=[N+]([O-])O[C@H]1CO[C@H]2[C@H]1OC[C@@H]2O[N+](=O)[O-] | 4.9%[25.6 µM]
CCOC(=O)C1(c2ccccc2)CCN(Cc2cccc(C(=O)O)c2)CC1 | 4.3%
c1ccc(C(OCCN2CCNCC2)c2ccccc2)cc1 | -1.6%
Oc1cc2c(cc1O)[C@H]1c3ccccc3CN[C@@H]1CC2 | 3.16µM*
CCCn1c(C)c(C(=O)c2cccc3ccccc23)c2ccccc21 | -10.7%
C[N+](C)(C)Cc1ccccc1 | -4.1%
COC[C@]12CN(C=O)C3C4C(OC)C1[C@@]3(C1CC3(O)C(OC)C(O)C4(OC(C)=O)C1C3OC(=O)c1ccccc1)[C@@H](OC)CC2O (some centres undefined) | 8.4%
Cc1ccc(N)cc1C | 2.4%
C[C@H](N[C@@H](C)CCc1ccccc1)[C@H](O)c1ccc(O)cc1 | 5.3%
COc1ccc2c(c1)/C(=C/c1cnc[nH]1)C(=O)N2 | -5.8%
CCCN(CCC)C1Cc2cc(OC)c(OC)cc2C1 | -12.8%&2.5%
CNC(=O)O/N=C/C(C)(C)S(C)=O (centres undefined) | ?
CC(=O)N[C@@H]1CCSC1=O | 6.4%[25.6 µM]
O=[N+]([O-])OC1CO[C@H]2C(O[N+](=O)[O-])COC12 (some centres undefined) | 1.3%
OCC(O)Cc1ccc2c(c1)OCO2 (centres undefined) | 2.5%
COc1cc2cc(c1Cl)N(C)C(=O)C[C@H](OC(=O)C(C)C)[C@]1(C)O[C@@H]1[C@@H](C)[C@H]1C[C@](O)(NC(=O)O1)[C@@H](OC)/C=C\C=C(\C)C2 | 0.4%[11.4 µM]
C=CCN1C[C@@H](C)N([C@H](c2ccc(C(=O)N(CC)CC)cc2)c2cccc(OC)c2)C[C@H]1C | -4.3%
COC(C)(C)CCCC(C)C/C=C/C(C)=C/C(=O)OC(C)C (centres undefined) | -2.4%
CC1=CC(=O)c2c(O)cccc2C1=O | 12.6µM*
C[C@H](N)Cc1cnc[nH]1 | 1.8%&-4.7%
Cc1ccc(-c2nc3ccc(C)cn3c2CC(=O)N(C)C)cc1 | 31.6µM*
CC(C)CC(=O)C[C@H](O)C(Cl)(Cl)Cl | 4.9%[11.4 µM]
C[C@@H]1NCCc2cc(O)c(O)cc21 | 6.31µM*
CC(C)(C)NC[C@H](O)c1ccccc1Cl | -2.4%
CC(C)(C)c1o[nH]c(=O)c1C[C@H](N)C(=O)O | -5.5%&-2.5%
O=C1NC(=O)[C@]2(Cc3ccccc3N3CCN(c4ccccc4)CC32)C(=O)N1c1ccccc1 (some centres undefined) | ?
COC(=O)C(O)(c1ccc(N(C)S(=O)(=O)c2ccccc2)cc1)C(F)(F)F (centres undefined) | -8.1%
O=P(O)(O)CCP(=O)(O)O | 3.5%[11.4 µM]
C=CC1CN2CCC1CC2C(O)c1ccnc2ccccc12 (centres undefined) | -4.0%&-24.9%
COC(=O)c1c(C)n(Cc2ccc3c(c2)OCO3)c2ccc(O)cc12 | -26.1%
C1CCC2CCCCC2C1 (centres undefined) | -4.1%

Part of the list above, field by field:
C=CCN1CCc2cccc3c2[C@@H]1Cc1ccc(O)c(O)c1-3
  HSD17B inh: 25.1µM*
CCCc1c(C)c2cc(C)ccc2[nH]c1=O
  HSD17B inh: ?
CCC(=O)Nc1cc(C(=O)N2CCC3(CC2)OCCO3)ccc1S(=O)(=O)c1ccc(C)cc1
  HSD17B inh: 3.9%
